Marburg entry inh = blocks Marburg virus binding to or entry into cells. Marburg virus pseudotyped entry inhibition, cell reporter; control for the full effect not named in the record; about a third of the inactives were read at about 46 µM. 1.8% of 300,000 active. Potency, µM (highest dose often 37.8 µM), for inactives: at the top dose activity change, negative = inhibition, usual class: inhibitors; active = well fitted inhibition curve with a large enough effect; inconclusive = small, poorly fitted or top-dose-only effect, or effect the other way; inactive = flat fitted curve, though single readings scatter; tested in HEK293 cells; about a fifth of its hits are not listed in these tables; note: % is set by controls: 0 for no effect and ±100 for the full control effect; luciferase read-out
NS1 function inh = inhibitors of influenza NS1 protein function. S. cerevisiae slowed by influenza A NS1, growth recovery by OD600. Potency, µM (doses to about 46.1 µM), without a hit: top-dose activity, positive = more growth. 0.4% of 270,000 active. AID 2326; active means well fitted rising curve with a large enough effect; inconclusive means small, poorly fitted or top-dose-only effect; inactive means no such curve, though single readings can be large or run the other way; note: nearly all actives have a fitted effect of over 50% in size
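Recovery from NS1-induced slow growth read by OD600 in budding yeast switched to galactose assay medium (pH 6.0, -URA) at 1:100 dilution. Compound 23 nl per well; the matching strain lacking NS1 serves as control.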
Cruzain inh Det = inhibitors of Trypanosoma cruzi cruzain with detergent. Potency, µM, inactives show max response, negative = inhibition, hits mostly inhibitors. 0.43% of 200,000 active. purified cruzain, Z-FR-AMC fluorescence, 0.01% Triton. P25779;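 note: plate controls were neutral wells for no effect and buffer without enzyme for full effect; nearly all actives have a fitted effect of over 40% in size; top concentration of the series not given in the record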
Target sequence (P25779 123-467 limits assumed): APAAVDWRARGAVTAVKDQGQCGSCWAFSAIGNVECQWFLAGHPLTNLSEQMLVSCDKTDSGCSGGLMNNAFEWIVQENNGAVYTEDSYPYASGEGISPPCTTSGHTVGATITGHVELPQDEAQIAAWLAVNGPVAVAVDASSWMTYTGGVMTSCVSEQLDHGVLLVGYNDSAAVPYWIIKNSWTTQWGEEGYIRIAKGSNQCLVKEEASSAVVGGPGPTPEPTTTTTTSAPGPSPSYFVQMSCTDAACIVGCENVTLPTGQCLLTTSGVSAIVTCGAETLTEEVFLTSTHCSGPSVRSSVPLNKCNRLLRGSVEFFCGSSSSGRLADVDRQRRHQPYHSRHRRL
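Cruzain (1.5 nM) preincubated 15 min at RT with compound in 100 mM sodium acetate pH 5.5, 5 mM DTT, 0.01% Triton X-100. Reaction started with 2 uM Z-FR-AMC; AMC fluorescence (ex 360/em 450 nm) change over 60 s gave rate.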
LASV entry inh = inhibitors of Lassa virus binding or cell entry. Lassa virus pseudotype entry inhibition, cell reporter; control for the full effect not named in the record. Potency, µM (doses to about 37.9 µM), inactives show at the highest dose activity change, negative = inhibition, actives largely listed as inhibitors. 1.2% of 300,000 active. AID 540256; active means well fitted inhibition curve with a large enough effect; inconclusive means small, poorly fitted or top-dose-only effect, or effect the other way; inactive means flat fitted curve, though single readings scatter; tested in HEK293 cells; note: % is set by controls: 0 for no effect and ±100 for the full control effect; nearly all actives have a fitted effect of over 50% in size; luciferase read-out
RE007 growth inh = less growth of the S. pombe RE007 Vpr strain; S. pombe RE007 Vpr strain, BacTiter-Glo ATP luminescence, 24 h; control for the full effect not named in the record; Potency, µM (highest dose often 92.2 µM), for the others: top-dose activity change, negative = less growth; 0.21% of 360,000 active; AID 651644; active = well fitted falling curve with a large enough effect; inconclusive = small, poorly fitted or top-dose-only effect; inactive = no such curve, though single readings can be large or run the other way;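 note: % is set by controls: 0 for no effect and ±100 for the full control effect; nearly all actives have a fitted effect of over 50% in size; the assay follows cell death caused by Vpr and the record does not say whether a fall means rescue or toxicity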
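Fission yeast strain RE007, carrying one chromosomally integrated HIV-1 vpr copy, was seeded at OD 0.01 in PMG+AL medium with 23 nL pinned compound. After 24 h at 30 °C and 99% humidity, viability was read by BacTiter-Glo luminescence.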
Cruzain noTriton = cruzain (T. cruzi) inhibition without detergent; purified cruzain, Z-FR-AMC fluorescence, no detergent; Potency, µM, for inactives: max response, negative = inhibition, actives largely listed as inhibitors; 2.3% of 200,000 active; AID 1476;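 note: plate controls were enzyme without inhibitor for no effect and buffer without enzyme for full effect; nearly all actives have a fitted effect of over 40% in size; top concentration of the series not given in the record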
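Detergent-free condition (0.00005% Triton X-100) in acetate buffer pH 5.5 with DTT. 1.5 nM enzyme and compound were pre-mixed 15 min, then 2 uM Z-FR-AMC substrate added; reaction progress from fluorescence change between first and third reads (60 s).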
SARS PLP yeast = blocks SARS-CoV papain-like protease in a yeast assay; S. cerevisiae expressing SARS-CoV PLpro, growth rescue; control for the full effect not named in the record; Potency, µM (top dose mostly 32.9 µM), for inactives: top-dose activity, positive = growth rescue; 0.19% of 330,000 active; active means well fitted rising curve with a large enough effect; inconclusive means small, poorly fitted or top-dose-only effect; inactive means no such curve, though single readings can be large or run the other way; note: 0% is about no effect; nearly all actives have a fitted effect of over 55% in size; growth read by luminescence after 48 h
StopGo reporter = lowers the luciferase signal of an FMDV 2A StopGo reporter | human cells with a luciferase reporter of 2A StopGo recoding; control for the full effect not named in the record | Potency, µM (series often up to 57.9 µM), for inactives: top-dose signal change, negative = less light | AID 1159524 | 1.2% of 410,000 active; active = well fitted falling curve with a large enough effect; inconclusive = small, poorly fitted or top-dose-only effect; inactive = no such curve, though single readings can be large or run the other way; tested in HEK293T cells; note: % is set by controls: 0 for no effect and ±100 for the full control effect; nearly all actives have a fitted effect of over 45% in size; luciferase light after 4 h
Starred values were filed as active, the others as inactive; ? = inconclusive; nt = not tested or not shown; & = joins results of further samples; [ ] = dose if it differs, or a comment. Unless noted, calls come from the whole dose curve; as a rule, active = well fitted curve in the direction sought with a large enough effect; inconclusive = small, poorly fitted or top-dose-only effect, or another doubt; inactive = no such curve, though single readings can be large; an effect the other way counts as inactive or inconclusive. Potency is the fitted concentration of half-maximal effect.

Fields – Marburg entry inh | NS1 function inh | Cruzain inh Det | LASV entry inh | RE007 growth inh | Cruzain noTriton | SARS PLP yeast | StopGo reporter
- CC(NC(=O)c1ccccc1)c1nc2ccccc2n1Cc1ccccc1F (stereo not drawn)
  nt | -2.5% | -1.7% | nt | nt | -1.3% | 9.6% | nt
- CC12CN3CC(C)(CN(C1)C3c1ccc(Br)cc1O)C2 (stereo not drawn)
  ? | -11.0% | 6.6% | 12.1% | -1.8% | 2.1% | -2.3% | 0.0%
- CC(C)N(Cc1nc(-c2ccccc2)no1)C(=O)COc1ccccc1
  nt | -43.4% | -1.2% | nt | 7.9% | -7.5% | -0.7% | -1.5%
- CN(C)Cc1c(O)c(Cl)cc2c3c(c(=O)oc12)CCCC3
  27.5% | 1.9% | ? | -4.3% | 4.9% | 12.6µM* | 13.7% | 0.0%
- CCCN1C(=O)/C(=C/c2ccc(C)s2)NC1=S
  6.0% | -7.5% | -10.2% | 0.9% | ? | -4.7% | 25.1% | -2.0%
- Cn1c(=NC(=O)c2cccc([N+](=O)[O-])c2)sc2ccccc21
  21.2%[46.1 µM] | 3.1% | nt | nt | 1.3% | nt | 1.1% | 9.9%
- O=C(CCSCc1ccccc1F)NCc1ccc(F)cc1
  1.2%[46.1 µM] | -9.9% | nt | 0.1%[46.1 µM] | 0.9% | nt | -0.7% | -3.7%
- Cc1cccc(NC(=O)CN2NS(=O)(=O)c3ccccc3C2=O)c1
  0.8% | 1.1% | -2.4% | 4.4% | -7.1% | 7.4% | 1.1% | -17.6%
- CC(C)c1ccc(-c2nc(N3CCOCC3)[nH]c(=O)c2C#N)cc1
  -27.9% | -7.8% | 4.5% | -1.4% | 3.4% | 3.9% | -4.1% | nt
- CCC1C(=NO)C(CC)C(c2ccccc2)NC1c1ccccc1 (stereo not drawn)
  ? | -9.6% | nt | ? | -1.4% | nt | -4.1% | ?
- COC(=O)c1cc(CNC(=O)c2cccc(Cl)c2)ccc1OC
  -5.7% | -0.2% | 1.5% | -1.7% | -2.3% | -11.0% | -12.7% | -7.2%
- COc1cc2c(cc1OC)CC(=O)NC=C2
  12.6%[46.1 µM] | nt | nt | -8.7% | 9.6% | nt | -3.8% | -10.8%
- O=[n+]1c2c(n([O-])c3cc(Cl)ccc31)CCCC2
  -3.4% | 2.8% | -1.1% | 8.0% | -10.7% | -2.8% | -0.5% | -22.6%
- COc1ccc(CNC(=O)C2CCCN(S(=O)(=O)c3ccc(F)cc3)C2)cc1 (stereo not drawn)
  -8.2% | -1.1% | nt | -7.3% | 0.5% | nt | -3.1% | -9.2%
- O=C(CCN1CCN(Cc2ccccc2)CC1)Nc1ccccc1Cl
  -19.2% | -8.4% | -2.7% | 5.2% | 9.3% | -15.8% | -5.2% | -23.8%
- CCOc1ccc(NC(=O)CC2C(=O)N(c3ccc(OC)c(Cl)c3)C(=S)N2C2CC2)cc1 (stereo not drawn)
  15.5% | -3.8% | nt | ? | -4.0% | nt | 0.2% | -16.8%
- COc1ccc(N(C(=O)Cn2nnc(-c3ccc(C)o3)n2)C(C(=O)NC2CCCC2)c2ccncc2)cc1 (stereo not drawn)
  -4.5%[46.1 µM] | 1.1% | nt | -4.2%[46.1 µM] | -7.6% | nt | 0.6% | -9.7%
- O=C(CN(CC1CCCO1)C(=O)CNS(=O)(=O)c1ccc(Cl)cc1)NCc1ccccc1 (stereo not drawn)
  -28.2%[46.1 µM] | -7.6% | nt | 8.3% | -12.2% | nt | 1.4% | 15.9%
- CCc1ccc(OCc2nc(-c3ccc(-n4cccc4)cc3)no2)cc1
  6.3%[46.1 µM] | nt | -0.4% | ? | nt | -29.4% | nt | -29.4%
- Cc1ccc(NC(=O)COC(=O)c2ccccc2Nc2ccccc2)cc1
  6.4% | 11.0% | -8.6% | 14.0% | 14.1% | ? | 12.0% | -15.8%
- Cc1ccc(S(=O)(=O)Nc2cccc(Cl)c2)cc1NC(=O)C1CC1
  25.2% | nt | nt | -12.0% | 0.1% | nt | 4.9% | 28.9%
- Cn1cccc1Cc1nnc(SCC(=O)Nc2ccc3c(c2)OCO3)n1-c1ccc(F)cc1
  -2.8%&-2.8% | -18.4% | -1.9% | -12.2% | -7.3% | 6.5% | -12.2% | 0.0%
- Cc1ccc(-n2nnnc2SCC(=O)NNC(=O)c2ccc([N+](=O)[O-])cc2)cc1
  5.0% | 1.8% | nt | -29.0% | -22.2% | nt | 0.1% | -0.7%
- COc1ccc(N(CC(=O)N2CCCCC2)S(=O)(=O)c2ccccc2)c(OC)c1
  11.2% | 0.2% | 2.7% | -11.6% | -5.9% | 10.6% | 11.3% | nt
- COCCNc1oc(-c2ccco2)nc1S(=O)(=O)c1ccccc1
  -2.5% | 18.3% | nt | -2.6% | -1.3% | nt | -3.9% | -5.8%
- O=C(NC(Cc1ccccc1)C(=O)NC1CC1)OCc1ccccc1 (stereo not drawn)
  -17.1%[46.1 µM] | -1.6% | nt | -6.2%[46.1 µM] | 2.4% | nt | -0.3% | -9.6%
- O=S(=O)(c1ccc(Cl)cc1)N1CCC2(CC1)OCCO2
  -6.0%[46.1 µM] | -11.5% | nt | -3.9%[46.1 µM] | 0.3% | nt | -6.8% | -0.7%
- Clc1ccc(OCCN2CCCCC2)c(Cl)c1
  ? | -0.4% | -4.6% | 0.0% | -17.0% | -16.3% | -1.8% | nt
- CN(Cc1ccc(OCC(O)CN2CCCCC2)cc1)Cc1ccnc2ccccc12 (stereo not drawn)
  nt | 3.2% | nt | nt | -12.1% | nt | -0.1% | ?
- COc1ccc(Cl)cc1CN1CCOCC1
  -0.3% | 1.1% | nt | ? | -21.4% | nt | 3.1% | -0.5%

The final two records of the part above are carried over, then new ones follow.
Fields – Marburg entry inh | NS1 function inh | Cruzain inh Det | LASV entry inh | RE007 growth inh | Cruzain noTriton | SARS PLP yeast | StopGo reporter
- CN(Cc1ccc(OCC(O)CN2CCCCC2)cc1)Cc1ccnc2ccccc12 (stereo not drawn)
  nt | 3.2% | nt | nt | -12.1% | nt | -0.1% | ?
- COc1ccc(Cl)cc1CN1CCOCC1
  -0.3% | 1.1% | nt | ? | -21.4% | nt | 3.1% | -0.5%
- Cc1cccc(-c2nnn3c2nc(NCCc2ccc(S(N)(=O)=O)cc2)c2cc(Cl)ccc23)c1
  28.4%[46.1 µM] | nt | -0.3% | 1.4%[46.1 µM] | nt | 4.4% | nt | -20.9%
- COc1cccc(C(=O)Nc2ccccc2F)c1
  ? | -1.2% | nt | 19.4% | -3.2% | nt | -1.7% | 50.3%[activator]
- CC(C)(C)CC(=O)Nc1ccc(S(=O)(=O)N2CCCC2)cc1
  ? | -0.4% | nt | ? | -2.7% | nt | 0.8% | -0.4%
- COc1ccc(C(O)c2ccccc2OP(=O)(N(C)C)N(C)C)cc1 (stereo not drawn)
  -23.2% | 6.5% | -0.7% | 4.7% | -6.2% | 5.2% | 0.7% | -2.8%
- COc1ccc(CCNC(=O)c2ccc(CSCc3ccc(C)cc3)o2)cc1OC
  nt | nt | 0.7% | ? | nt | ? | nt | ?
- CCS(=O)(=O)Nc1c(C(=O)O)[nH]c2ccccc12
  5.8% | -8.2% | -4.5% | 3.1% | 8.1% | 7.1% | -1.6% | 43.5%[activator]
- Cc1cccc(N2CCN(C(=O)CCNS(=O)(=O)c3ccc4c(c3)CCN4C(=O)C3CC3)CC2)c1C
  nt | nt | -6.5% | -21.6%[46.1 µM] | nt | ? | nt | ?
- O=C(COC(=O)c1cc(=O)[nH]c(=O)[nH]1)Nc1cccc(S(=O)(=O)N2CCCCC2)c1
  19.9%[46.1 µM] | nt | nt | 21.4% | -7.7% | nt | 0.8% | -5.2%
- CN(C)S(=O)(=O)c1ccc(C(=O)OCC2CC2(Cl)Cl)cc1 (stereo not drawn)
  -2.3%[46.1 µM] | 9.2% | nt | -0.2% | 3.6% | nt | nt | -21.3%
- CCOc1ccccc1NC(=O)C1CCN(S(=O)(=O)c2cc(Br)cc3c2N(C(C)=O)CC3)CC1
  3.7%[46.1 µM] | nt | -1.3% | -1.1%[46.1 µM] | nt | 0.8% | nt | ?
- O=C(CCNC(=O)C1CCN(S(=O)(=O)c2ccccc2)CC1)NCCc1ccc(Cl)cc1
  nt | 3.3% | nt | nt | 6.2% | nt | -3.3% | -24.3%
- O=C(NC1CC(=O)N(c2ccc3c(c2)OCCO3)C1)N1CCCCC1 (stereo not drawn)
  ? | nt | nt | ? | -7.1% | nt | 1.8% | -4.3%
- O=C(OCC#CCSc1nnc(-c2ccc(Br)cc2)o1)c1ccco1
  -6.7% | -2.5% | -4.6% | 9.0% | 1.7% | 5.9% | -13.3% | 17.0%
- CCOC(=O)c1ccccc1NC(=O)CC(C)CC(=O)O (stereo not drawn)
  14.6%[46.1 µM] | -2.8% | -4.1% | -0.4% | -11.6% | -1.8% | 3.4% | -9.6%
- CCN1C(=O)C(O)(CC(=O)c2cccc(-n3cccc3)c2)c2ccccc21 (stereo not drawn)
  -2.8%[46.1 µM] | 11.5% | nt | 0.8%[46.1 µM] | 7.7% | nt | 0.9% | 0.0%
- COC(=O)C1=C(N)Oc2cc(C)[nH]c(=O)c2C1c1ccncc1 (stereo not drawn)
  2.8% | -0.8% | 4.6% | 4.2% | 6.5% | -3.0% | 4.5% | -6.8%
- COc1cccc(-n2c(=O)c3ccccc3n3c(=S)[nH]nc23)c1
  8.5%[46.1 µM] | 6.4% | nt | 11.6%[46.1 µM] | 6.0% | nt | -7.0% | -13.1%
- Cc1ccc(CNCc2cccnc2)cc1
  -1.8%[46.1 µM] | -0.5% | 4.3% | ? | 12.0% | -7.6% | 0.5% | -11.6%

Source: PubChem
